RE007 growth inh – less growth of the S. pombe RE007 Vpr strain. Potency, µM (doses to about 92.2 µM), for the others: at the highest dose activity change, negative = less growth. AID 651644. S. pombe RE007 Vpr strain, BacTiter-Glo ATP luminescence, 24 h; control for the full effect not named in the record. 360,000 compounds, 0.21% hits; active = well fitted falling curve with a large enough effect; inconclusive = small, poorly fitted or top-dose-only effect; inactive = no such curve, though single readings can be large or run the other way;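 further: on the % scale 0 is the no-effect control and ±100 the full control effect; nearly all actives have a fitted effect of over 50% in size; the assay follows cell death caused by Vpr and the record does not say whether a fall means rescue or toxicity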
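Fission yeast RE007 carrying one integrated HIV-1 vpr copy, seeded at OD 0.01 in PMG+AL medium with 23 nL pinned compound. Grown 24 h at 30 degrees; viability read by BacTiter-Glo luminescence after 5 min.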
MARV entry inh – Marburg virus entry inhibition; Marburg virus pseudotyped entry inhibition, cell reporter; control for the full effect not named in the record; about a third of the inactives were read at about 46 µM; AID 540276; 300,000 compounds, 1.8% hits; Potency, µM (series often up to 37.8 µM), for inactives: top-dose activity change, negative = inhibition, usual class: inhibitors; active = well fitted inhibition curve with a large enough effect; inconclusive = small, poorly fitted or top-dose-only effect, or effect the other way; inactive = flat fitted curve, though single readings scatter; tested in HEK293 cells; about a fifth of its hits are not listed in these tables; further: on the % scale 0 is the no-effect control and ±100 the full control effect; luciferase read-out
LASV entry inh – blocks Lassa virus binding to or entry into cells | Lassa virus pseudotype entry inhibition, cell reporter; control for the full effect not named in the record | Potency, µM (top dose mostly 37.9 µM), without a hit: at the highest dose activity change, negative = inhibition, usual class: inhibitors | 300,000 compounds, 1.2% hits | AID 540256; active means well fitted inhibition curve with a large enough effect; inconclusive means small, poorly fitted or top-dose-only effect, or effect the other way; inactive means flat fitted curve, though single readings scatter; tested in HEK293 cells; further: on the % scale 0 is the no-effect control and ±100 the full control effect; nearly all actives have a fitted effect of over 50% in size; luciferase read-out
NS1 function inh – influenza NS1 inhibition | Potency, µM (highest dose often 46.1 µM), without a hit: at the top dose activity, positive = more growth | S. cerevisiae slowed by influenza A NS1, growth recovery by OD600 | 270,000 compounds, 0.4% hits | AID 2326; further: actives are rising curves; nearly all actives have a fitted effect of over 50% in size
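Recovery from NS1-induced slow growth read by OD600 in budding yeast switched to galactose assay medium (pH 6.0, -URA) at 1:100 dilution. Compound 23 nl per well; the matching strain lacking NS1 serves as control.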
StopGo reporter – FMDV 2A StopGo reporter, luciferase signal | human cells with a luciferase reporter of 2A StopGo recoding; control for the full effect not named in the record | Potency, µM (doses to about 57.9 µM), inactives show at the top dose signal change, negative = less light | 410,000 compounds, 1.2% hits; active = well fitted falling curve with a large enough effect; inconclusive = small, poorly fitted or top-dose-only effect; inactive = no such curve, though single readings can be large or run the other way; tested in HEK293T cells; further: on the % scale 0 is the no-effect control and ±100 the full control effect; nearly all actives have a fitted effect of over 45% in size; luciferase light after 4 h
SARS PLP yeast – blocks SARS-CoV papain-like protease in a yeast assay; AID 485353; Potency, µM (highest dose often 32.9 µM), for inactives: at the top dose activity, positive = growth rescue; S. cerevisiae expressing SARS-CoV PLpro, growth rescue; control for the full effect not named in the record; 330,000 compounds, 0.19% hits; further: 0% is about no effect; nearly all actives have a fitted effect of over 55% in size; growth read by luminescence after 48 h
Cruzain Triton – cruzain (T. cruzi) inhibition with detergent; purified cruzain, Z-FR-AMC fluorescence, 0.01% Triton; AID 1478; 200,000 compounds, 0.43% hits; P25779; Potency, µM, without a hit: max response, negative = inhibition, usual class: inhibitors; active means well fitted curve in the direction sought with a large enough effect; inconclusive means small, poorly fitted or top-dose-only effect, or another doubt; inactive means no such curve, though single readings can be large; an effect the other way counts as inactive or inconclusive;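 further: plate controls were neutral wells for no effect and buffer without enzyme for full effect; nearly all actives have a fitted effect of over 40% in size; top concentration of the series not given in the record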
Target sequence (P25779 123-467 limits assumed): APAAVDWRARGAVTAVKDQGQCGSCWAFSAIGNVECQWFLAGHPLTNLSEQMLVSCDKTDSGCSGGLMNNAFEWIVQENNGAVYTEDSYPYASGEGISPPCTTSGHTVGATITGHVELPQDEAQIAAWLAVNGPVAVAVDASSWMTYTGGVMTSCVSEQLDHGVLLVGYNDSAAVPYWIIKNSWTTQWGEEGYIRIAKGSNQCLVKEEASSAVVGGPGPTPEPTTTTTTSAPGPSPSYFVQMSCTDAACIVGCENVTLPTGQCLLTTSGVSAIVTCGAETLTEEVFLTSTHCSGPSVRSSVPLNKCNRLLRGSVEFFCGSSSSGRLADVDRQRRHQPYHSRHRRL
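Cysteine protease activity tested under reducing, mildly acidic conditions (100 mM sodium acetate pH 5.5, 5 mM DTT) plus 0.01% Triton X-100. Cruzain 1.5 nM; substrate Z-FR-AMC 2 uM; 15 min compound preincubation at room temperature.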
Cruzain noTriton – blocks cruzain activity in detergent-free assay | purified cruzain, Z-FR-AMC fluorescence, no detergent | 200,000 compounds, 2.3% hits | AID 1476 | P25779 | Potency, µM, inactives show max response, negative = inhibition, most hits filed as inhibitors; active means well fitted curve in the direction sought with a large enough effect; inconclusive means small, poorly fitted or top-dose-only effect, or another doubt; inactive means no such curve, though single readings can be large; an effect the other way counts as inactive or inconclusive;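 further: plate controls were enzyme without inhibitor for no effect and buffer without enzyme for full effect; nearly all actives have a fitted effect of over 40% in size; top concentration of the series not given in the record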
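Purified cruzain at 1.5 nM, pre-incubated 15 min with compound at room temperature in 100 mM sodium acetate pH 5.5, 5 mM DTT, 0.00005% Triton X-100. Reaction started with 2 uM Z-FR-AMC; AMC fluorescence increase over 60 s gives rate.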
An asterisk follows results filed as active; ? = inconclusive; nt = not tested or not shown; [ ] = dose if it differs, or a comment. Unless noted, the call rests on the fitted dose curve; in most records, active means well fitted rising curve with a large enough effect; inconclusive means small, poorly fitted or top-dose-only effect; inactive means no such curve, though single readings can be large or run the other way. Potency means the concentration at half of the fitted maximal effect.

SMILES	RE007 growth inh	MARV entry inh	LASV entry inh	NS1 function inh	StopGo reporter	SARS PLP yeast	Cruzain Triton	Cruzain noTriton
O=C1CCCN1c1ccc(C(=O)N(Cc2nnc(-c3ccccc3Cl)o2)C2CC2)cc1	?	10%	9%	nt	-7%	1%	nt	nt
COc1ccc(C(C(=O)OCCN(C)C)c2ccccc2)cc1 (stereo unspecified)	7%	2%	14%	-2%	1%	-3%	4.8%	-6%
CSc1cccc(NC(=S)NCCCO)c1	0%	13%[46.1 µM]	-1%	-1%	21%	0%	nt	nt
O=C(c1ccc(Cl)cc1)N1CCN(CCc2ccccn2)CC1	17%	?	5%	3%	7%	0%	nt	nt
CN1OC(CC(=O)O)N(c2ccc(Cl)cc2)C1=O (stereo unspecified)	-1%	-1%[46.1 µM]	11%	1%	21%	-6%	1.4%	9%
CCOC(=O)C1CCN(C(=O)c2cc(C(C)(C)C)nn2Cc2ccccc2)CC1	18%	nt	nt	-2%	-22%	1%	nt	nt
Cc1c(NC(=O)c2cc(C3CC3)on2)c(=O)n(-c2ccccc2)n1C	-9%	nt	nt	7%	-1%	4%	1.9%	-11%
NNc1nc2sc3c(c2c(=O)[nH]1)CCc1ccccc1-3	-8%	-3%	-5%	-9%	5%	-22%	-2.0%	6%
COc1cc(OC)c2c(c1)OC(=O)CC2c1ccc(C)cc1 (stereo unspecified)	8%	nt	nt	nt	-18%	12%	0.5%	-3%
COc1ccc(CCNC(=O)C(C)SCc2ccccc2)cc1 (stereo unspecified)	0%	-22%[46.1 µM]	nt	-10%	3%	0%	nt	nt

Three compounds picked at random from the list so far:
SMILES	RE007 growth inh	MARV entry inh	LASV entry inh	NS1 function inh	StopGo reporter	SARS PLP yeast	Cruzain Triton	Cruzain noTriton
O=C(c1ccc(Cl)cc1)N1CCN(CCc2ccccn2)CC1	17%	?	5%	3%	7%	0%	nt	nt
COc1ccc(C(C(=O)OCCN(C)C)c2ccccc2)cc1 (stereo unspecified)	7%	2%	14%	-2%	1%	-3%	4.8%	-6%
Cc1c(NC(=O)c2cc(C3CC3)on2)c(=O)n(-c2ccccc2)n1C	-9%	nt	nt	7%	-1%	4%	1.9%	-11%

Going on with the list.
SMILES	RE007 growth inh	MARV entry inh	LASV entry inh	NS1 function inh	StopGo reporter	SARS PLP yeast	Cruzain Triton	Cruzain noTriton
CSc1nnc(C)c(=O)n1COC(=O)COc1ccccc1F	4%	?	24%[46.1 µM]	nt	-6%	-2%	nt	nt
CCS(=O)(=O)N1CCC(C(=O)NCCCN2CCCCCC2)CC1	10%	1%	7%	2%	nt	9%	5.1%	-1%
CCOC(=O)C1CCCN(Cc2ccccc2OCC)C1 (stereo unspecified)	-7%	-30%	?	-13%	-23%	1%	3.5%	-6%
Cn1c(CC(=O)Nc2ccccc2)nnc1SCCOc1ccccc1	8%	-1%	16%	-7%	34%[activator]	nt	7.7%	13%
COc1cc(C#CC#CCN2CCCCC2)ccc1O	0%	?	?	8%	39%[activator]	-2%	3.3%	10%
COc1ccc(-n2nc3cc(N)c(Br)cc3n2)cc1	-4%	-22%	?	4%	51%[activator]	0%	nt	nt
COc1ccc(-c2cc3nc(C4CCN(C(=O)OC(C)(C)C)CC4)c(C(=O)Nc4cc(C)cc(C)c4)cn3n2)cc1	nt	-7%[46.1 µM]	-21%[46.1 µM]	nt	0%	nt	-1.3%	0%
N=C1C(c2nc3ccccc3s2)=C(O)CN1C1CCCCC1	-11%	nt	nt	1%	68%[activator]	-3%	nt	nt
CN1C(=O)c2ccccc2Sc2ccc(NC(=O)Nc3ccccc3F)cc21	nt	?	-21%[46.1 µM]	nt	3%	nt	-5.1%	?
CCc1noc(C)c1C(=O)OCC(=O)N(C)c1c(N)n(Cc2ccccc2)c(=O)[nH]c1=O	-2%	18%	0%	nt	-12%	-2%	nt	nt
CC1=C(c2ccc(C)c(C)c2)S(=O)(=O)N=C1N1CCC(C(=O)NC(C)c2ccccc2)CC1 (stereo unspecified)	nt	nt	-19%[46.1 µM]	nt	18%	nt	-5.9%	24%
O=C(Cc1c(F)cccc1Cl)N(Cc1ccccc1)c1ccccn1	6%	nt	nt	-3%	1%	0%	nt	nt
Cc1cc(C(=O)OCC(=O)NCCC(C)C)c2ccccc2n1	10%	-4%	?	-13%	-2%	-9%	2.5%	-12%
Cc1cccc(N(CC(=O)N/N=C/c2ccccc2C(=O)O)S(C)(=O)=O)c1C	-1%	nt	nt	3%	14%	3%	nt	nt
Cc1ccc2c3c1C(=O)C(=O)N3C(C)(C)CC2C (stereo unspecified)	17%	5%	19%	-88%	nt	5%	3.0%	-5%
Cc1nc(/C(N)=N/OC(=O)c2ccccc2Cl)c(C(F)(F)F)o1	-8%	nt	nt	-8%	61%[activator]	-2%	nt	nt
COc1ccc2cc3cc(C(=O)NCc4cccs4)oc3nc2c1	21%	-1%	?	2%	-7%	-11%	-0.2%	-17%
Fc1ccc(-n2cc(-c3ccccc3)c3c(NN4CCOCC4)ncnc32)cc1	-3%	?	?	-15%	0%	-1%	-3.5%	16%
N#Cc1ccccc1Cn1c(SCC(=O)NCc2ccccc2)nc2ccccc21	nt	nt	?	nt	-18%	nt	-0.2%	10%
O=C(c1ccc(F)cc1)C1CCN(C(=O)c2c(F)cccc2F)CC1	-6%	10%[46.1 µM]	-5%[46.1 µM]	-10%	-24%	2%	nt	nt
Cc1ccc(-n2ncc3c(=O)[nH]c(SCC(=O)N4CC(=O)Nc5ccccc54)nc32)cc1	-11%	-2%	-7%	nt	-3%	2%	nt	nt
COc1ccc(NC(=O)CSc2ccc3nc(-c4ccccc4)cn3n2)cc1OC	nt	nt	?	nt	69%[activator]	nt	-4.1%	-10%
Cn1c(=O)c2c(SCc3ccccn3)nc(C3CC3)nc2n(C)c1=O	-6%	nt	nt	-55%	-25%	-1%	-11%	6%
O=C(/C=C/NNC(=O)c1ccccc1)c1ccc(Br)cc1	-4%	?	?	-104%	7%	-15%	-7.5%	?
COc1ccc(C2CCCCCN2Cc2nc3ccccc3c(=O)n2CC(N)=O)cc1 (stereo unspecified)	-26%	-25%[46.1 µM]	15%[46.1 µM]	-12%	37%[activator]	-6%	nt	nt
CCOc1ccccc1NC(=O)c1cccc(NC(=O)C2CCCC2)c1	5%	?	?	-11%	-24%	?	nt	nt
Cc1ccc(S(=O)(=O)N(C)c2ccccc2C(=O)N2CCOCC2)cc1	?	-18%	1%	1%	-21%	-7%	nt	nt
CC(C)(C(=O)c1ccccc1)/[N+]([O-])=C/c1ccc(F)cc1	-2%	-6%	-15%	nt	-5%	nt	nt	nt
CC(C)n1cc(CN2CCC(C(=O)Nc3cccc(-c4cccc(Cl)c4)c3)CC2)cn1	21%	nt	nt	-3%	-7%	-2%	nt	nt
COc1ccc2c(c1)c1c(c(=O)n(Cc3ccccc3)c(=O)n1Cc1ccccc1Cl)n2C	nt	nt	16%[46.1 µM]	nt	-4%	nt	-0.9%	8%
COc1ccccc1NC(=O)C(C)Sc1nnnn1C (stereo unspecified)	-6%	17%	-5%	5%	6%	3%	3.4%	2%
Cc1ccc2cccc(NC(=S)NC(=O)c3ccn(C)n3)c2n1	10%	-4%	?	8%	-20%	51%	-6.3%	20%
CCNC(=S)NNc1nnc(-c2ccccc2)c(-c2ccccc2)n1	3%	-9%[46.1 µM]	-8%[46.1 µM]	18%	-12%	5%	nt	nt
CC(Oc1ccc(Br)cc1)C(=O)NNC(=O)CCN1CCN(c2ccccc2)CC1 (stereo unspecified)	-5%	11%	10%	nt	-16%	-2%	nt	nt
CCN(CC)CCCN=Cc1c(O)n(-c2cccc(C)c2C)c(=O)[nH]c1=O	11%	?	2%	-9%	2%	7%	3.6%	-3%
O=C(/C=C/c1ccco1)Nc1ccc(F)cc1	nt	nt	-16%[46.1 µM]	nt	26%	-3%	-6.2%	-1%
O=c1[nH]c(=O)n(Cc2ccccc2)c2nc(-c3cccs3)n(CCO)c12	2%	-8%[46.1 µM]	-1%	4%	68%[activator]	-1%	nt	nt
O=c1[nH]c(O)c(/C=C2\C=Nc3ccccc32)[nH]1	6%	nt	nt	5%	9%	0%	nt	nt
CC(C)(C)C1CCc2c(sc(NC(=O)c3cc(C4CC4)on3)c2C#N)C1 (stereo unspecified)	-17%	nt	nt	-108%	-20%	-1%	-3.3%	-26%
CN(C)c1ccc(-c2ccccc2)nn1	-11%	6%[46.1 µM]	?	-14%	0%	-2%	-0.5%	-13%
COC(=O)c1cc2ccsc2n1Cc1nc(-c2ccc(Cl)cc2)oc1C	-3%	nt	nt	5%	-5%	10%	-3.1%	-17%
COc1ccccc1C(=O)Nc1ccc(NC(=O)c2ccco2)c(C)c1	-12%	2%	5%	-29%	26%	-14%	-0.7%	-2%

In the list so far, six have an NH in an aromatic ring:
SMILES	RE007 growth inh	MARV entry inh	LASV entry inh	NS1 function inh	StopGo reporter	SARS PLP yeast	Cruzain Triton	Cruzain noTriton
NNc1nc2sc3c(c2c(=O)[nH]1)CCc1ccccc1-3	-8%	-3%	-5%	-9%	5%	-22%	-2.0%	6%
CCc1noc(C)c1C(=O)OCC(=O)N(C)c1c(N)n(Cc2ccccc2)c(=O)[nH]c1=O	-2%	18%	0%	nt	-12%	-2%	nt	nt
Cc1ccc(-n2ncc3c(=O)[nH]c(SCC(=O)N4CC(=O)Nc5ccccc54)nc32)cc1	-11%	-2%	-7%	nt	-3%	2%	nt	nt
CCN(CC)CCCN=Cc1c(O)n(-c2cccc(C)c2C)c(=O)[nH]c1=O	11%	?	2%	-9%	2%	7%	3.6%	-3%
O=c1[nH]c(=O)n(Cc2ccccc2)c2nc(-c3cccs3)n(CCO)c12	2%	-8%[46.1 µM]	-1%	4%	68%[activator]	-1%	nt	nt
O=c1[nH]c(O)c(/C=C2\C=Nc3ccccc32)[nH]1	6%	nt	nt	5%	9%	0%	nt	nt
